Bioassay records (PubChem BioAssay)
ClpP mod: qHTS Assay for Activators of ClpP. purified B. subtilis ClpP, FRET peptide cleavage, 20 min. hit rate 1.9% among 340,000. Potency, µM (titrated, usually from 57.5 µM), for inactives: at the top dose activity change, negative = active. ATP-dependent Clp protease proteolytic subunit (Bacillus subtilis (strain 168)), P80244. AID 651965, 2013; active = well fitted falling curve with a large enough effect; inconclusive = small, poorly fitted or top-dose-only effect; inactive = no such curve, though single readings can be large or run the other way; also: potency is read from the fitted curve at half-maximal effect; the source files actives as falling curves though it sought activators and does not explain the sign; nearly all actives have a fitted effect of over 65% in size; many hits overshoot -100%
Target sequence (P80244 whole entry, looked up): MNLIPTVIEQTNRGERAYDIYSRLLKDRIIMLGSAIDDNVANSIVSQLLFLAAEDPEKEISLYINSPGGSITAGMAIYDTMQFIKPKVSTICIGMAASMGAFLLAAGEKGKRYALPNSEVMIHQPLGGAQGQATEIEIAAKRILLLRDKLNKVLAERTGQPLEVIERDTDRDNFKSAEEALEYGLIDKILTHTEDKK
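ClpP 10 microg/mL final, pH 8 Tris/KCl buffer with BSA, glycerol, Tween-20; compound pinned in; FRET-FV substrate; RT 20 min; Ex320/Em430; ΔFRET vs ADEP 5.8 microM, DMSO, no enzyme.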
TRPML1 agonist: human mucolipin-1 channel agonism | TRPML1-expressing cells, Ca2+ dye fluorescence, FDSS; host cell line not named in the record; reference of the full effect not given here | hit rate 0.12% among 410,000 | activation, % (test concentration not listed) | AID 624414; in the data active = activation above about 50%; inconclusive = about 30% to 50%; inactive = below about 30%; also: 0% is about no effect; the text of the record puts the active cut at 80%
Target sequence (Q9GZU1 whole entry, looked up): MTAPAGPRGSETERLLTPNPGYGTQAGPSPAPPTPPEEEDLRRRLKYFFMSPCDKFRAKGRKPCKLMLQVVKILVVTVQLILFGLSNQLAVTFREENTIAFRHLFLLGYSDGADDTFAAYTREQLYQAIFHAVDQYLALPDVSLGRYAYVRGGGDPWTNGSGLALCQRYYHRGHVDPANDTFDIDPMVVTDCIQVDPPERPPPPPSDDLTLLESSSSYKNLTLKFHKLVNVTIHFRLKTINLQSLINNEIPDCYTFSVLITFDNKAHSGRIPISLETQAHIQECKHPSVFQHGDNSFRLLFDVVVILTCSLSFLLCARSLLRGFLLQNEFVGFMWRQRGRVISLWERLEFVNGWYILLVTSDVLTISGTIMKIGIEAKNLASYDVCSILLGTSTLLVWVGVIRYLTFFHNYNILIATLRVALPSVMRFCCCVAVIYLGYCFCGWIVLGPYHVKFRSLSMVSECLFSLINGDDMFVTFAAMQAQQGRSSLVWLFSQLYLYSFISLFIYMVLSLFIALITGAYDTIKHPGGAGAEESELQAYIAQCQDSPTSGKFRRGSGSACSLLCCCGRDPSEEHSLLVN
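Tet-induced TRPML1-DL cells, 1,500 per well, cultured overnight, were loaded with a no-wash Ca2+ dye for 45–90 min. Calcium fluorescence was recorded on the FDSS for 110 s after compound addition, before the EC80 agonist (4 uM 54-4) was added.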
PINK1 modulator: PINK1 expression modulation; Potency, µM (highest dose often 76.6 µM), for inactives: at the top dose activation (PINK1 increase), usual class: activators; PINK1 immunofluorescence, high-content cytometry, 24 h; hit rate 0.2% among 410,000; active = well fitted activation curve with a large enough effect; inconclusive = small, poorly fitted or top-dose-only effect; inactive = flat fitted curve, though single readings scatter; cell line not stated here;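 also: potency is read from the fitted curve at half-maximal effect; % of control where 0% means no effect; nearly all actives have a fitted effect of over 65% in size; a mitochondrial uncoupler was the plate control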
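Fluorescence from anti-PINK1 antibody, together with nuclear and cell stains, was scanned on a laser-scanning cytometer. Before staining, stable-line cells were incubated 24 hours with compounds at 5 concentrations; primary antibody 12 h at 10 degrees C.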
TRPV1 potentiator: enhances activation of the human vanilloid receptor TRPV1 | hit rate 0.02% among 320,000 | AID 540277 | Q8NER1 | potentiation, % at 8.33 µM | TRPV1-expressing cells, Fluo-8 calcium influx, capsaicin EC20 potentiation; host cell line not named in the record; control for the full effect not named in the record; active means potentiation above 80%; inconclusive means 30% to 80%; inactive means below 30%; also: 0% is about no effect
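TRPV1-expressing cells were cultured overnight at 35.5C and loaded with Fluo-8 calcium dye for 40 to 90 min at room temperature. After a 10 s baseline, compound was added and calcium influx was read kinetically for 3 min (ex 480/em 520 nm).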
Sfp PPTase inh: inhibitors of Bacillus subtilis Sfp phosphopantetheinyl transferase. Biochemical Sfp PPTase activity, qHTS. Potency, µM, without a hit: max response, negative = inhibition, actives largely listed as inhibitors. hit rate 3.5% among 310,000; active = well fitted inhibition curve with a large enough effect; inconclusive = small, poorly fitted or top-dose-only effect, or another doubt; inactive = no such curve, though single readings can be large or run the other way;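 also: the enzyme is Sfp with the accession as filed and its product quenches rhodamine fluorescence; potency is read from the fitted curve at half-maximal effect; 0% = enzyme reaction without inhibitor and -100% = no enzyme wells; top concentration of the series not given in the record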
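Fluorescence-quenching assay with 15 nM Sfp, 5 uM rhodamine-CoA and 12.5 uM BHQ-2-labelled ybbR peptide in pH 7.6 Hepes/MgCl2 buffer. Enzyme was pre-incubated with compound for 15 min at room temperature. Rate was taken from the 30-min fluorescence change (525/598 nm).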
Menin-MLL FL inh: inhibitors of human menin-MLL interaction, wild-type MLL peptide. 290,000 tested, under 10 active. Fluorescence polarization, fluorescein-MLL peptide displacement from menin. FP activity change, % at 61.4 µM. AID 1766; inconclusive = falling polarisation curve, or a change in total fluorescence; inactive = total fluorescence flat and polarisation flat or rising; no compound was filed as active; the % refers to the polarisation; negative = inhibition;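 also: % of control where 0% means no effect; inhibitors lower the polarisation; unlabelled MLL peptide was the positive control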
TRPML1 blocker: blocks the human TRPML1 channel; TRPML1-inducible cells, Ca2+ dye fluorescence, FDSS; stronger effect = lower value; inhibition of EC80 agonist-evoked calcium signal; hit rate 0.02% among 390,000; AID 624415; activity change, negative = inhibition, % (no concentration beside the values); in the data active means activity change below about -50%; inconclusive means about -30% to -50%; inactive means above about -30%;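 also: stimulus is agonist 54-4 at its EC80 concentration; % is scaled to controls: 0 for no effect and ±100 for the full control effect; compound concentration not given in the record; the text of the record puts the active cut at -80%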
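TRPML1-DL cells, Tet-induced overnight (~16 h, 37 °C) at 1,500 cells/well, were loaded with Ca8 no-wash dye plus quencher for 45-90 min at room temperature. Compounds were pinned during FDSS kinetic reading; agonist 54-4 at EC80 (4 uM final) then added.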
* marks the source's active call; other numbers are inactive results; ? = inconclusive; · = no result given; & = joins results of further samples; [ ] = remark or other dose. The order is random; about 4.4% have a hit in one of these screens.

SMILES	ClpP mod	TRPML1 agonist	PINK1 modulator	TRPV1 potentiator	Sfp PPTase inh	Menin-MLL FL inh	TRPML1 blocker
COc1ccccc1/C=C(/C(=O)OCC(N)=O)c1ccccc1	-0.6%	0.6	-0.7%	15.3	-3.1%	8.2	-23.5
c1ccc(Cn2nnc3c(NCc4ccc5c(c4)OCO5)ncnc32)cc1	-3.5%	0.9	3.6%	2.8	-26.1%	-1.4	11.7
CCc1ccccc1NC(=O)CSc1nnc(-c2cc(OC)c(OC)c(OC)c2)o1	0.2%	-1.1	1.5%	·	·	·	2.8
CCOC(=O)C1=C[C@@H](C(C)(C)C)N(S(=O)(=O)c2ccc(C)cc2)[C@H]1c1ccc(C)cc1	-4.3%	-0.2	3.2%	·	·	·	-4.2
CCCNS(=O)(=O)/C=C/c1ccccc1	-16.5%	0.4	-0.1%	14.5	-4.5%	0.3	-3.4
COc1ccc(NC(=O)C(CCS(C)(=O)=O)N2C(=O)c3ccccc3C2=O)cc1 (stereo not given)	0.0%	-0.7	-0.3%	7.8	18.6%	2.0	-2.4
CCC(=O)N1CCc2cc(Br)cc(S(=O)(=O)C3(C(=O)OC)CC3)c21	-2.4%	-0.1	-0.1%	-0.5	8.8%	-2.0	1.5
O=C1c2ccc(-c3ccc(F)cc3OCc3ccccc3)cc2S(=O)(=O)c2cccc(C(=O)N3CCN(c4ncc(Cl)cc4Cl)CC3)c21	-1.7%	-0.8	-0.1%	·	·	·	20.6
CC(C)CC(=O)NC(=S)Nc1sc2c(c1C(N)=O)CCC2	·	0.1	9.6%	4.9	-10.8%	-1.7	-0.9
CC(C)CC(=O)N1CCN(Cc2cccc([N+](=O)[O-])c2)CC1	-0.7%	0.2	-0.5%	12.1	4.4%	-0.5	2.0
CSc1ccc(/C=C/C(=O)NC23CC4CC(CC(C4)C2)C3)cc1	-2.2%	1.6	0.0%	5.3	7.4%	0.1	45.3
CC(=O)Nc1ccc(CN2CCN(CC(C)C)C(CCO)C2)cc1 (stereo not given)	-1.6%	-0.4	0.0%	5.2	13.0%	-3.1	4.0
O=C(N/N=C/c1ccc([N+](=O)[O-])cc1)c1cnccn1	-0.7%	-0.7	-2.3%	-11.3	8.5%	4.0	8.9
COc1ccc(NC(=O)N2CCC(NC(=O)c3ccco3)CC2)cc1	-2.2%	-0.5	1.9%	-0.7	17.1%	-1.6	-4.2
Cc1cccc(NS(=O)(=O)c2nnc(NC(=O)c3ccc(Cl)cc3)s2)c1	-5.7%	0.6	1.7%	1.0	26.7%	-10.9	-13.4
O=S1(=O)CC(O)C(N=Nc2c(O)n(Cc3ccccc3)c3ccccc23)C1 (stereo not given)	0.6%	·	-0.1%	-0.7	0.0%	0.3	·
O=C1N(C2CCCC2)C[C@@H]2C[C@@H](c3cccn3-c3nccs3)N3CCC[C@@]123	·	-0.7	0.1%	10.0	-7.6%	2.7	-8.6
CSc1ccc(OC2(C)CCN(Cc3ccc4c(c3)OCCO4)C2)cc1 (stereo not given)	-4.8%	-0.5	-0.2%	·	·	·	·
O=c1[nH]c(=S)[nH]nc1Cc1ccc(Cl)c(Cl)c1	·	1.6	-0.5%	9.9	25.1%	-3.1	-17.6
Cn1c(=O)c(-c2ccccc2)c(O)c2ccccc21	-19.5%	0.2	3.5%	4.2	-18.6%&-21.1%	0.8&3.3	-2.2
N#CC(=Nc1ccccc1)c1ccccc1	·	-1.1	14.2%	·	·	·	20.6
Fc1ccc(C2CC(c3ccco3)=Nc3ccccc3S2)cc1 (stereo not given)	-0.7%	0.9	-0.8%	-2.6	-95.4%	1.2	-3.3
CCn1cnc2sc(C(=O)N3CCN(Cc4ccc5c(c4)OCO5)CC3)c(C)c2c1=O	·	·	·	2.1	-2.2%	-1.8	·
Cc1cc(Br)ccc1NC(=O)CNC(=O)CSc1n[nH]c(N)n1	-3.5%	0.8	2.0%	15.0	22.0%	2.7	27.3
Fc1ccc(CN(Cc2ccccc2)C(c2cccs2)c2nnnn2C2CCCCC2)cc1 (stereo not given)	0.1%	1.2	0.2%	-1.4	10.9%	7.1	-13.3
Cc1nc(N2CCN(C(c3ccccc3)c3ccccc3)CC2)[nH]c(=O)c1C	0.7%	0.1	3.1%	1.3	13.7%	-0.6	3.2
CCOc1ccc2cc(-c3nnc(Nc4ccccc4F)s3)c(=O)oc2c1	-5.4%	0.5	0.0%	·	·	·	7.2
COC(=O)/C(=C/c1cccc([N+](=O)[O-])c1)NC(=O)c1ccc(OC)cc1	-1.1%	0.3	-0.2%	5.3	7.3%	3.1	12.3
CCOc1ccc(NC(=O)C2CCCN(S(=O)(=O)c3ccc(Br)s3)C2)cc1 (stereo not given)	1.9%	3.2	5.5%	·	·	·	18.5
CCc1ccc(OC)c(S(=O)(=O)Nc2ccc(Cc3ccncc3)cc2)c1	·	2.7	-2.2%	3.6	-5.2%	0.8	5.5
CC1CN(CC(O)COc2ccc(C(C)C)cc2)CC(C)O1 (stereo not given)	-0.1%	0.6	-0.8%	-33.2	14.2%	7.3	47.6
O=C(Nc1ccccc1)C1=C(O)CC(c2ccoc2)CC1=Nc1ccccc1 (stereo not given)	0.2%	1.0	?	-9.7	-23.4%	7.5	-2.0
Cc1cnc(C(=O)OC(C)C(=O)Nc2ccc(Oc3ccccc3)cc2)cn1 (stereo not given)	-0.3%	-0.6	2.6%	-3.8	·	·	4.6
c1ccc2c3n(nc2c1)CCCCO3	-7.9%	-0.1	0.4%	-5.6	·	·	-7.1
CN(C)c1ccc(CNC(=O)C2Cc3c(-c4cccc(C(N)=O)c4)ccnc3O2)cc1 (stereo not given)	-2.7%	-0.8	9.2%	·	·	·	·
CCCCC12CN3CCN(CC(C3)/C1=N\NC(=O)c1ccccc1N)C2	-2.2%	0.3	0.5%	-10.0	9.6%	·	6.9
CCOc1ccc(-c2c[n+](=O)c3c(n2[O-])CCCC3)c(OCC)c1	-1.8%	1.9	6.7%[38.3 µM]	28.7	2.4%	3.4	-15.3
Cc1ccc(CNC(=O)c2ccc(CSCc3ccccc3Cl)o2)cc1	0.4%	4.8	1.1%	·	·	·	65.7
CC(=O)Nc1ccc(-n2c(C)ccc2-c2ccccc2)cc1	·	0.1	2.9%	16.4	-7.3%	0.4	11.4
C#CCN(Cc1ccccc1)S(=O)(=O)C=C	0.4%&3.6%	-0.3&-1.2	9.6%	-12.1	·	·	-9.3
O=C(NN1C(=O)c2ccccc2NC1c1ccco1)c1ccc(Br)cc1 (stereo not given)	-15.9%	3.6	-0.2%	-11.4	8.3%	0.6	-27.8
CCOCc1c(C(=O)OCC(=O)/C(C#N)=C(\C)N)oc2ccccc12	·	2.8	0.3%	-29.4	-0.1%	-1.3	-24.5
COc1ccc(Cl)cc1C1=CC(=O)C[C@H](c2ccc(F)cc2)C1	0.1%	4.9	4.3%	-8.5	·	·	20.8
O=[N+]([O-])c1cccc(CN2[C@@H](Cc3ccccc3)COCCS2(=O)=O)c1	-2.8%	-0.3	1.8%	·	·	·	-6.5
CN(C)CC(C)(C)CNC(=O)C1CCN(CCCc2ccccc2)CC1	1.6%	0.4	0.8%	4.6	0.8%	-3.8	-9.9
Cc1ccc(N(Cc2ccc(C(=O)NCCSc3ccccn3)cc2)S(C)(=O)=O)cc1C	-3.0%	1.3	-0.6%	-1.6	12.0%	-1.2	12.5
O=C1NC[C@H](CCCCN2CCN(CCc3ccccc3)C(=O)C2=O)N(CC2CCCCC2)C1=O	-1.0%	-0.7	-1.0%	·	·	·	·
C=CCNC(=O)c1ccccc1NC(=O)COc1ccc(OC)cc1	2.3%	1.1	-1.9%	1.5	-8.9%	0.0	-5.3
CN(C(=O)CSc1nc2ccccc2c(=O)n1C)C1CCS(=O)(=O)C1 (stereo not given)	·	-0.7	2.6%	·	·	·	4.3
COC(=O)c1ccc(-n2nnnc2SCC(=O)N2CCCCC2)cc1	-0.2%	-1.6	-4.2%	-31.2	14.0%	-1.2	11.1
CCC(=O)N1CCC2(CC1)Oc1ccc(F)cc1C(=O)C21CC(c2ccc(Cl)cc2)=NO1 (stereo not given)	0.9%	-0.8	-0.9%	-1.7	7.7%	3.8	27.8
CN1CCN(c2ccc(Cl)cc2NC(=O)c2ccc(S(=O)(=O)N(C)C)cc2)CC1	2.5%	2.6	-0.4%	3.6	-4.5%	-4.7	-7.0
OCCNCc1cc(Br)ccc1OCc1ccc(F)cc1	·	0.7	0.9%	3.4	18.2%	0.8	-11.5
CC(=O)C1=C(C)N(Cc2ccccc2)C(=O)N[C@@H]1c1cccc(C(F)(F)F)c1	-0.6%	-0.4	1.4%	0.4	-7.8%	7.3	2.8
CN(C)C(=O)CCc1ccc2c3c([nH]c2c1)[C@]1(C)[C@@H](C(=O)N2CCCCC2)C[C@H](CC(=O)NCCC2=CCCCC2)C(=O)N1CC3	2.0%	-0.2	2.1%	·	·	·	5.2
Cc1ccc(C(=O)C(C)Sc2nnc(N)s2)cc1 (stereo not given)	1.9%	-0.8	-0.1%	-6.7	20.1%	5.1	-11.6
CCc1ccccc1NC(=O)CCC(=O)N1CCN(C(C)=O)CC1	-0.7%	-0.1	-1.8%	·	·	·	29.6
CN(C(=O)c1cccc(NC(=O)Cc2ccc(NC(=O)C3CCN(S(=O)(=O)c4cccc([N+](=O)[O-])c4)CC3)cc2)c1)C1CCC1	-2.3%	0.1	0.0%	·	·	·	12.5
CCOC(=O)CSc1cc(C)c(C#N)c2nc3ccccc3n12	·	2.4	-0.1%	5.2	-11.3%	3.6	-23.8
COc1cc(C(=O)Nc2nncs2)cc(OC)c1OC	-3.5%	-1.2	-0.9%	-16.3	19.1%	0.8	0.0
O=c1[nH]cnc2c([N+](=O)[O-])cccc12	-0.9%	-0.6	1.1%	1.1	-18.2%	-0.4	-6.2
Cc1cccc(-n2ncc3c(=O)[nH]c(SCC(=O)Nc4cc(C)on4)nc32)c1	·	-0.8	13.4%	·	·	·	8.0
